High-throughput results as filed in PubChem BioAssay.
gsp agonist = agonists of gsp mutant (McCune-Albright syndrome) | gsp mutant cells, cAMP HTRF, 30 min; control for the full effect not named in the record | Potency, µM (series often up to 76.9 µM), inactives show top-dose activation (cAMP increase), most hits filed as activators | hit rate 0.13% among 340,000; active = well fitted activation curve with a large enough effect; inconclusive = small, poorly fitted or top-dose-only effect, or another doubt; inactive = no such curve, though single readings can be large or run the other way; cell line not stated here;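 also: phosphodiesterase inhibitor Ro 20-1724 added with compounds to block cAMP breakdown; potency is read from the fitted curve at half-maximal effect; nearly all actives have a fitted effect of over 60% in size; about a fifth of the inactives were tested at one dose only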
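Cells stably selected in G418 were plated at 2000/well, grown 16-24 hr, then given compounds in DMSO with the PDE inhibitor […] (300 uM solution added) for 30 min at 37C; cAMP was read by HTRF.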
Sfp PPTase inh = Sfp phosphopantetheinyl transferase inhibition; Q9F4F7; Biochemical Sfp PPTase activity, qHTS; Potency, µM, for the others: max response, negative = inhibition, usual class: inhibitors; hit rate 3.5% among 310,000; active = well fitted inhibition curve with a large enough effect; inconclusive = small, poorly fitted or top-dose-only effect, or another doubt; inactive = no such curve, though single readings can be large or run the other way;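 also: the enzyme is Sfp with the accession as filed and its product quenches rhodamine fluorescence; potency is read from the fitted curve at half-maximal effect; 0% = enzyme reaction without inhibitor and -100% = no enzyme wells; top concentration of the series not given in the record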
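Sfp 15 nM + cpd, 15 min RT; start w/ rhodamine-CoA 5 uM, BHQ-2-YbbR 12.5 uM (final); 50 mM Hepes pH 7.6, 10 mM MgCl2, 0.01% NP-40, 0.01% BSA; read 525/598 nm at 0 and 30 min.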
gsp antag = antagonizes gsp, the McCune-Albright syndrome mutation | Potency, µM (titrated, usually from 76.9 µM), for inactives: top-dose activity change, negative = inhibition, most hits filed as inhibitors | AID 624288 | gsp-mutant cells, cAMP HTRF, 30 min; control for the full effect not named in the record | hit rate 0.4% among 340,000; active = falling curve of any shape with a large fitted effect; inconclusive = falling curve, mostly with a smaller effect; inactive = flat or rising curve; cell line not stated here;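 also: intracellular cAMP measured with PDE inhibitor Ro 20-1724 present during compound exposure; potency is read from the fitted curve at half-maximal effect; % is scaled to controls: 0 for no effect and ±100 for the full control effect; nearly all actives have a fitted effect of over 65% in size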
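G418-selected cells were plated in DMEM/10% FBS for 16-24 h at 37C, then treated with compounds plus the PDE inhibitor […] (300 uM solution added) for 30 min at 37C. Intracellular cAMP was measured by HTRF after 30 min lysis at room temperature.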
ClpP mod = qHTS Assay for Activators of ClpP. AID 651965, 2013. Potency, µM (doses to about 57.5 µM), for inactives: top-dose activity change, negative = active. hit rate 1.9% among 340,000. purified B. subtilis ClpP, FRET peptide cleavage, 20 min; active = well fitted falling curve with a large enough effect; inconclusive = small, poorly fitted or top-dose-only effect; inactive = no such curve, though single readings can be large or run the other way; also: potency is read from the fitted curve at half-maximal effect; the source files actives as falling curves though it sought activators and does not explain the sign; nearly all actives have a fitted effect of over 65% in size; many hits overshoot -100%
Target sequence (P80244 whole entry, looked up): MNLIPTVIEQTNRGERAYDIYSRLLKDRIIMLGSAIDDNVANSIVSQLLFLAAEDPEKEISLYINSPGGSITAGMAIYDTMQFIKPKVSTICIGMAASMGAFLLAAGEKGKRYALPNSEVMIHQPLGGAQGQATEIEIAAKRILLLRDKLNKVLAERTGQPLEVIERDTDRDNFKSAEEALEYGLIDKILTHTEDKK
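ClpP 10 microg/mL final, pH 8 Tris/KCl buffer with BSA, glycerol, Tween-20; compound pinned in; FRET-FV substrate; RT 20 min; Ex320/Em430; ΔFRET vs ADEP 5.8 microM, DMSO, no enzyme.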
Menin-MLL FL inh = inhibitors of human menin-MLL interaction, wild-type MLL peptide; Fluorescence polarization, fluorescein-MLL peptide displacement from menin; FP activity change, % at 61.4 µM; 290,000 tested, under 10 active; AID 1766; inconclusive = falling polarisation curve, or a change in total fluorescence; inactive = total fluorescence flat and polarisation flat or rising; no compound was filed as active; the % refers to the polarisation; negative = inhibition;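 also: % of control where 0% means no effect; inhibitors lower the polarisation; unlabelled MLL peptide was the positive control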
CtBP-E1A inh = blocks the CtBP interaction with E1A; AlphaScreen GST-E1A/His-CtBP binding, 1536-well; hits give low values; control for the full effect not named in the record; activity change, % (test concentration not listed); hit rate 0.49% among 340,000; AID 651724; in the data active means activity change below about -65%; inconclusive means about -30% to -65%; inactive means above about -30%; also: % is scaled to controls: 0 for no effect and ±100 for the full control effect; compound concentration not given in the record
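Homogeneous bead-based format: GST-tagged E1A captured on glutathione donor beads, His-tagged CtBP on nickel acceptor beads; compounds precede bead addition by 2 h at 37 °C.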
TRPV1 potentiator = enhances activation of the human vanilloid receptor TRPV1; Q8NER1; TRPV1-expressing cells, Fluo-8 calcium influx, capsaicin EC20 potentiation; host cell line not named in the record; control for the full effect not named in the record; potentiation, % at 8.33 µM; hit rate 0.02% among 320,000; AID 540277; active means potentiation above 80%; inconclusive means 30% to 80%; inactive means below 30%; also: 0% is about no effect
Target sequence (Q8NER1 whole entry, looked up): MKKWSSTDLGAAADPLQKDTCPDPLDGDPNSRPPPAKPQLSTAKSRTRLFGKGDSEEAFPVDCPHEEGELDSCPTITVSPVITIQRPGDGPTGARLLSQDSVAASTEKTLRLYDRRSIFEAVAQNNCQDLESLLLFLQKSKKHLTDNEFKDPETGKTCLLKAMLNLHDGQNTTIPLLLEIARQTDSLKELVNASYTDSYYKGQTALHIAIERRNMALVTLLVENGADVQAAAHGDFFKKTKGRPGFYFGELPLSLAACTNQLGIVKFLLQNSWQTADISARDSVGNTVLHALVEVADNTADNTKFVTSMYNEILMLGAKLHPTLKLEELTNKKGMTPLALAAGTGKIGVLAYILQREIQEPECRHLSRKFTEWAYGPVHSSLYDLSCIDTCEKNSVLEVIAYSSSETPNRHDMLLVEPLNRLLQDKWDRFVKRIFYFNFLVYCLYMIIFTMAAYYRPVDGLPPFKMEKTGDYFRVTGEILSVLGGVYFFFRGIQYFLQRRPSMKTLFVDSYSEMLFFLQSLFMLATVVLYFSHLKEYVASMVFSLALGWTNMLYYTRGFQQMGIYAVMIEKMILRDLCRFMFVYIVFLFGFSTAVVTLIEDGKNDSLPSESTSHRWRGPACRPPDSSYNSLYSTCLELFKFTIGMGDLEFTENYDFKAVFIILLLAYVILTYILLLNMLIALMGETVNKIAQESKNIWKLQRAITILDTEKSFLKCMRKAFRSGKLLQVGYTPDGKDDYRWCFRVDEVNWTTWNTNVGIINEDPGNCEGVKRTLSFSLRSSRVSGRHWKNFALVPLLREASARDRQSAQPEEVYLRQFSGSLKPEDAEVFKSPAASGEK
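Fluo-8 calcium influx in TRPV1-expressing cells, kinetic read (ex 480/em 520 nm). Compound added and read 3 min for agonist activity, followed by capsaicin at EC20 final and 2 min further read for enhancement.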
An asterisk follows results filed as active; ? = inconclusive; . = no result given; & = joins results of further samples; [ ] = remark or other dose.

SMILES | gsp agonist | Sfp PPTase inh | gsp antag | ClpP mod | Menin-MLL FL inh | CtBP-E1A inh | TRPV1 potentiator
COc1cc(NC(=O)Nc2ccccc2)c(OC)cc1NC(=O)CN1CCCCC1 | -39%[inhibitor] | -15% | -16% | 0.4% | 1.0 | ? | -18
C=C1CCN(c2ccc(C(=O)NCc3ccc(C)cc3)cc2[N+](=O)[O-])CC1 | . | -1% | -5% | -1.4% | 5.8 | -18 | -13
COC(F)(C(=O)Nc1ccc2c(c1)C(=O)NC2=O)C(F)(F)F (configuration not stated) | -17% | 12% | -1% | -28% | -0.3 | 3 | 4
C/C(=N\NC(=O)CN(c1ccccc1Br)S(C)(=O)=O)c1cccs1 | -6%[15.4 µM] | 12% | -1% | . | -4.4 | 0 | 1
CC(C)CCNC(=O)CN(C(=O)CCC(=O)Nc1ccccn1)c1ccc2c(c1)OCCO2 | -1% | 14% | -15% | 0.6% | -1.5 | 3 | 4
O=C(NS(=O)(=O)Oc1ccc(F)c(Cl)c1)OC[C@@H]1CCCN2CCCCC12 (some centres not stated) | ? | 13% | -1% | . | 1.7 | 1 | 12
O=C(COC(=O)C12CC3CC(CC(Br)(C3)C1)C2)NNC(=O)c1ccccc1 | 21% | . | 6% | 0.8% | . | 9 | -10
COCCn1c(SCC(=O)Nc2ccc(F)cc2)nc2ccccc2c1=O | -6% | 15% | 5% | -0.4% | 5.5 | 5 | -11
O=C(C[C@@H]1C/C=C\C[C@H](Cc2ccc(F)cc2)C(=O)OC[C@@H](c2ccccc2)NC1=O)NCCO | 6% | . | -1% | -4.4% | . | . | .
CN(C)S(=O)(=O)N1CCC(Oc2cccc(C(=O)N3CCSCC3)c2)CC1 | -10% | 14% | 5% | 1.7% | . | 1 | -6
N#C/C(=C\c1c(Oc2ccccc2F)nc2ccccn2c1=O)C(=O)NC1CCS(=O)(=O)C1 (configuration not stated) | ? | 23% | -12% | . | -1.4 | 0 | 23
Cc1cccc(N(CC(=O)N2CCN(c3ccccc3F)CC2)S(C)(=O)=O)c1 | -53%[inhibitor] | -19% | 10% | -1.6% | 7.5 | -5 | -10
COCCn1c(N)c(Sc2ccc(C)cc2)c(=O)[nH]c1=O | -16%[15.4 µM] | 14% | 3% | 0.2% | . | 8 | -2
CC1=Nc2ccc(Br)cc2C(c2ccccc2)N1CC(=O)NN (configuration not stated) | -22% | 11% | -1% | 1.2% | 0.0 | 8 | 19
C/C(=N\NC(=O)c1ccc(Cl)cc1)c1cccs1 | -12%[15.4 µM] | 12% | 10% | . | 0.4 | 12 | -8
CC(=O)Nc1ccc(S(=O)(=O)N2CCC(c3nc4ccccc4[nH]3)CC2)cc1 | -6% | -4% | 2% | 2.4% | 3.8 | -9 | 0
COc1ccccc1CCNC(=O)C1CC(=O)N(c2ccccc2F)C1 (configuration not stated) | -14% | . | . | 0.4% | . | 4 | .
Cc1c(NC(=O)C(Sc2ccccc2)c2ccccc2)cccc1[N+](=O)[O-] (configuration not stated) | 0% | 10% | -9% | -1.2% | -1.2 | 7 | -4
CN(C)C(CNC(=O)c1cnc(Cl)c(Cl)c1)c1ccccc1 (configuration not stated) | -43%[inhibitor] | ? | -4% | 2.1% | -1.3 | . | -18
O=C(NC1CCCC1)C(c1cccnc1)N(C(=O)c1ccco1)c1cccc(F)c1 (configuration not stated) | -2% | 11% | 11% | . | -1.9 | 1 | -10
O=C(COC(=O)c1ccc(Cl)nc1)Nc1cccc(S(=O)(=O)N2CCCCC2)c1 | -23% | . | -11% | -2.4% | . | . | 10
CCCOc1ccc(-c2c(C(=O)N/N=C/c3ccc(C)o3)nnn2-c2nonc2N)cc1 | 20% | 6% | 0% | 4.1% | . | . | 6
c1ccc(OCCCCN2CCOCC2)cc1 | -2% | -8% | 0% | -1.5% | 4.2 | 0 | -1
Cc1cc(NC(=O)CCNS(=O)(=O)c2ccc3[nH]c(=O)oc3c2)ccc1Br | 9% | 13% | -7% | -0.2% | . | -9 | -5
Cc1ccc(C(=O)NC(=S)N2CCN(c3ccccc3F)CC2)cc1 | 8%[15.4 µM] | -18% | -1% | 0.9% | 1.1 | 1 | -5
CC(C)CC(=O)NC(=S)Nc1cccc2nsnc12 | -12%[15.4 µM] | ? | ? | . | -3.5 | 2 | -14
O=C(CCC1CCCCC1)Nc1ccc(C(=O)c2ccncc2)cc1 | 2%[15.4 µM] | 5% | -24% | -0.4% | -0.4 | -8 | -7
CN(CC(=O)Nc1ccccc1C(=O)NC1CC1)Cc1ccc(Cl)s1 | -6% | . | ? | 0.2% | . | 7 | -16
Cc1ccc(S(=O)(=O)c2nc(/C=C/c3ccccc3)oc2N2CCC(C(N)=O)CC2)cc1 | -25% | . | . | 4.1% | . | 6 | .
Cc1cccc(Cn2nc(-n3cccc3)c3c(C)cc(C)nc32)c1 | -16% | -18% | 0% | 4.0% | 0.3 | 15 | ?
COc1ccc(C(=O)OCC(=O)NC2CCCCCC2)cc1OC | -6% | . | 0% | -4.3% | . | -5 | 0
OCCCn1c(-c2ccccc2)csc1=Nc1ccccc1 | -4%[15.4 µM] | 8% | . | . | 1.8 | -15 | -1
COC(=O)c1cc2n(n1)CCN(Cc1ccc(C)cc1)C2=O | 13% | 22% | 10% | 1.1% | 14 | 0 | -4
CC(=O)Nc1ccc(N(C(=O)c2ccco2)C(C(=O)NC2CCCC2)c2ccc(N(C)C)cc2)cc1 (configuration not stated) | -3%[15.4 µM] | 8% | 4% | . | . | 3 | 6
O=C(CN1CCOCC1)NC1CC2CCC1C2 (configuration not stated) | ? | ? | 23% | 0.0% | 1.9 | 0 | 9
O=C(NN1C(=O)c2cc(Br)ccc2NC1c1cc(Br)cc(Br)c1O)c1ccncc1 (configuration not stated) | -3%[15.4 µM] | 2% | -16% | . | 14 | 0 | 5
O=C(Cn1c2ccc(F)cc2c2nc3n(c(=O)c21)CCS3)N1CCCC1 | 33%[15.4 µM] | 4% | 4% | . | -10 | -7 | 27
CCOC(=O)C1=C(COC(=O)CNC(=O)c2cc(OC)c(OC)c(OC)c2)NC(=O)NC1C (configuration not stated) | 23%[15.4 µM] | . | 2% | . | . | 3 | -2
Cc1ccc(C2=NN(C(=O)C3CCCO3)C(c3ccco3)C2)cc1 (configuration not stated) | -11%[15.4 µM] | 1% | 3% | . | -0.3 | 4 | 2
Cc1ccccc1NC(=O)c1sc(NC(=O)COc2ccccc2)c(C#N)c1C | -2% | -19% | -27% | ? | 2.2 | -4 | 4
CCc1nc2ccc(C(=O)N3CCN(c4ccccc4)CC3)cc2nc1CC | 24% | -11% | -17% | -0.7%&-11% | . | -1 | 19
CCCCOc1c(Br)cc(/C=C2\N=C(C)OC2=O)cc1OCC | -20% | 11% | -5% | -4.5% | 0.7 | 10 | .
Cc1cccc(C)c1NC(=O)CN(C)C(=O)CN1C(=O)NC(C)(C)C1=O | -56%[inhibitor] | . | 7% | -0.6% | . | 4 | 14
CC(C)CC1NC(=O)c2cc3ccccc3cc2-n2c1nc1ccc(Cl)cc1c2=O (configuration not stated) | -45%[inhibitor] | . | . | -5.1% | . | -4 | .
CN1CCc2c(sc3c2C(=O)NC(c2ccccn2)N3)C1 (configuration not stated) | -14% | 16µM* | -2% | 16µM* | ? | ? | 5
CN1C(=S)SC(/[N+]([O-])=C/c2c(F)cccc2Cl)C1(C)C (configuration not stated) | -6%[15.4 µM] | 6% | 6% | 0.8% | -0.8 | 4 | -3
O=C(CSc1ncccn1)N/N=C/c1cccc(OC2CSC2)c1 | ? | 2% | -15% | -1.8% | -2.6 | 1 | -2
CCCCCCC(=O)N/N=C/Cc1ccccc1 | -1% | 17% | 3% | -3.5% | -3.6 | -1 | 28
Cc1ccc(NC(=O)C2CCN(C(=O)c3ccco3)CC2)cc1 | -7%[15.4 µM] | 6% | 7% | . | -1.4 | -7 | 17
COC(=O)[C@H](Cc1ccccc1)NC(=O)NCC1CCCO1 (some centres not stated) | -21% | 19% | 8% | -1.0% | 1.0 | 4 | -5
The list goes on:
SMILES | gsp agonist | Sfp PPTase inh | gsp antag | ClpP mod | Menin-MLL FL inh | CtBP-E1A inh | TRPV1 potentiator
O=C(COC(=O)c1ccccc1C(=O)c1ccc(Cl)cc1)NCCc1ccccc1 | -39%[inhibitor] | -5% | ? | 2.4% | -1.3 | 16 | -15
C[C@H](NC(=O)c1nc[nH]c1C(=O)N[C@@H](C)c1ccccc1)C(=O)OC(C)(C)C | -10% | 12% | 9% | 0.7% | -1.6 | 1 | 3
COc1cc(OC)cc(C(=O)N[C@H](C(=O)Nc2nc(-c3ccc(OC)c(OC)c3)cs2)C(C)C)c1 | ? | 12% | 0% | -1.6% | 3.0 | . | 25
O=C(O)C1=NN(c2ccccc2)C(=O)CC1 | 21% | 8% | 7% | . | 5.1 | 8 | 2
CC1CCCC(C)N1C(=O)c1ccc(CS(=O)(=O)c2ccccc2)cc1 (configuration not stated) | -51%[inhibitor] | 7% | -6% | 1.2% | . | 14 | -7
CCN1/C(=c2/s/c(=C3/C(=O)N(c4ccccc4)N=C3C)n(CC)c2=O)C=Cc2ccccc21 | -3%[15.4 µM] | . | 6% | . | . | -4 | .
CCc1cccc(C)c1NC(=O)COC(=O)CCn1c(C)csc1=O | -2% | . | . | -2.1% | . | 4 | .
CCN(CC)S(=O)(=O)N1CCC(C(=O)NCc2ccc3c(c2)OCO3)CC1 | -1% | 10% | 12% | -1.2% | 1.5 | 2 | -1
Cc1ccccc1-c1ccc2c(c1)O[C@@H](CN(C)C(=O)Nc1ccc(C(F)(F)F)cc1)[C@H](C)CN([C@@H](C)CO)S2(=O)=O | 2% | . | . | 2.0% | . | -6 | .
CCC1Oc2ccccc2N(CC(=O)NCCC2=CCCCC2)C1=O (configuration not stated) | -4% | -8% | -16% | -0.2% | -2.2 | 5 | 2

2 of the compounds above, with tabs:
smiles	gsp agonist	Sfp PPTase inh	gsp antag	ClpP mod	Menin-MLL FL inh	CtBP-E1A inh	TRPV1 potentiator
C[C@H](NC(=O)c1nc[nH]c1C(=O)N[C@@H](C)c1ccccc1)C(=O)OC(C)(C)C	-10%	12%	9%	0.7%	-1.6	1	3
COc1cc(OC)cc(C(=O)N[C@H](C(=O)Nc2nc(-c3ccc(OC)c(OC)c3)cs2)C(C)C)c1	?	12%	0%	-1.6%	3.0	.	25
